Six1-Eya2 blk: qHTS Assay for Inhibitors of the Six1/Eya2 Interaction; Homeobox protein SIX1 (Homo sapiens) + Protein phosphatase EYA2 (Homo sapiens), …; AlphaScreen GST-Six1/His-Eya2 binding, biochemical; hits give low values; control for the full effect not named in the record; activity change, % (no concentration beside the values); 360,000 tested, 0.56% active; AID 651725, 2012; in the data active = activity change below about -65%; inconclusive = about -30% to -65%; inactive = above about -30%; note: % is set by controls: 0 for no effect and ±100 for the full control effect; compound concentration not given in the record
Target sequence (O00167 whole entry, looked up): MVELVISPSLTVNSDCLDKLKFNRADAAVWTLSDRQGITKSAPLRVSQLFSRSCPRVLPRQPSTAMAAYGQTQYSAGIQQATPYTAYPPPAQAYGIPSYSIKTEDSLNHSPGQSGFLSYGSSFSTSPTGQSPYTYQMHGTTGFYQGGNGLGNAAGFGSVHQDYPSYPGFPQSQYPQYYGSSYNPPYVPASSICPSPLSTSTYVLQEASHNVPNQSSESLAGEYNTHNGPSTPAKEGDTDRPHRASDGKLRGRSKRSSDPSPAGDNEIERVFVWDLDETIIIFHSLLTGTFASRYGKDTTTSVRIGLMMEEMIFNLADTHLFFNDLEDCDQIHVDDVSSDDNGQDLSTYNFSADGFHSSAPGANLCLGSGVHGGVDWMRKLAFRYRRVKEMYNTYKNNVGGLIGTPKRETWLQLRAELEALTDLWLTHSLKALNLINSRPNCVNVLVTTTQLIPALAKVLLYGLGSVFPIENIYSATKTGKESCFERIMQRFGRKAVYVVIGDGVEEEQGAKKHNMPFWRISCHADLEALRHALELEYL
Target sequence (Q15475 whole entry, looked up): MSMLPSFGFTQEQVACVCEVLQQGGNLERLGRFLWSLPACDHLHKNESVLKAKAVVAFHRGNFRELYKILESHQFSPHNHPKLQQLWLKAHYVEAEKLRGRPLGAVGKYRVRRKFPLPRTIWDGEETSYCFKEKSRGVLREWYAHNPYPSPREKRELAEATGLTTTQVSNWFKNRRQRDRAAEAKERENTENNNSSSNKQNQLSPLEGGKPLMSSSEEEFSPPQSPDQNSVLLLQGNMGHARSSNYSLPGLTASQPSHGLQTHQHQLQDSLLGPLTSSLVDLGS
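AlphaScreen luminescence read after one hour at 37 °C in darkness. Pin-transferred compounds met GST-Six1 and His-Eya2 protein (5X stock 250 nM/500 nM) plus glutathione donor and Ni-chelate acceptor beads (5X, 50 ug/mL).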
D2 ag: Beta-Arrestin HTS for Positive Allosteric Modulators of the Human D2 Dopamine Receptor: Agonists. AID 624465, 2012. DiscoveRx PathHunter D2 beta-arrestin, luminescence, 90 min; 100% = 57 uM dopamine signal. D(2) dopamine receptor (Homo sapiens), P14416. activation, % (no concentration beside the values). 360,000 tested, 0.084% active; in the data active = activation above about 40%; inconclusive = about 15% to 40%; inactive = below about 15%; note: compound concentration not given in the record; the text of the record calls up to 30% inactive
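Agonist mode: compounds alone added to overnight-plated D2 PathHunter cells for 90 min at 37 C, with 57 uM final dopamine (EC100) defining full response. Beta-arrestin recruitment detected by chemiluminescent reagent, read after 1 h at ambient temperature.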
PINK1 expr mod: A Quantitative High throughput Screen to Identify Chemical Modulators of PINK1 Expression; PINK1 immunofluorescence, high-content cytometry, 24 h; Potency, µM (titrated, usually from 76.6 µM), for inactives: top-dose activation (PINK1 increase), most hits filed as activators; 410,000 tested, 0.2% active; AID 624263, 2012; active = well fitted activation curve with a large enough effect; inconclusive = small, poorly fitted or top-dose-only effect; inactive = flat fitted curve, though single readings scatter; cell line not stated here;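 note: potency is the fitted concentration of half-maximal effect; % of control where 0% means no effect; nearly all actives have a fitted effect of over 65% in size; a mitochondrial uncoupler was the plate control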
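Decision-based qHTS: stable cells, 24 h exposure to five compound concentrations, CCCP as control. Fixed cells stained for PINK1 plus nuclear, mitochondrial and cell markers, cytometer read.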
TRPML1 inh: qHTS for Inhibitors of the Human Mucolipin Transient Receptor Potential 1 (TRPML1) | Mucolipin-1 (Homo sapiens), Q9GZU1 | TRPML1-inducible cells, Ca2+ dye fluorescence, FDSS; hits give low values; inhibition of EC80 agonist-evoked calcium signal | activity change, negative = inhibition, % (test concentration not listed) | 390,000 tested, 0.02% active | AID 624415, 2012; in the data active means activity change below about -50%; inconclusive means about -30% to -50%; inactive means above about -30%;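 note: stimulus is agonist 54-4 at its EC80 concentration; % is set by controls: 0 for no effect and ±100 for the full control effect; compound concentration not given in the record; the text of the record puts the active cut at -80%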
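Calcium fluorescence in TRPML1-DL cells induced overnight with Tet: a 110 s read after compound pin addition, then a 110 s antagonist read after challenge with 54-4 at 4 uM final (EC80).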
TRPML1 agonist: qHTS for Agonists of the Human Mucolipin Transient Receptor Potential 1 (TRPML1) | Mucolipin-1 (Homo sapiens), Q9GZU1 | TRPML1-expressing cells, Ca2+ dye fluorescence, FDSS; host cell line not named in the record; reference of the full effect not given here | activation, % (no concentration beside the values) | 410,000 tested, 0.12% active | AID 624414, 2012; in the data active = activation above about 50%; inconclusive = about 30% to 50%; inactive = below about 30%; note: 0% is about no effect; the text of the record puts the active cut at 80%
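TRPML1-DL cells, Tet-induced overnight (~16 h, 37 degrees C), loaded 45-90 min at room temperature with Ca8 no-wash calcium dye plus quencher. FDSS fluorescence: 10 s baseline, compound pin-transfer, 110 s agonist read, then EC80 54-4 (4uM final) and 110 s antagonist read.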
D2 PAM: Beta-Arrestin HTS for Positive Allosteric Modulators of the Human D2 Dopamine Receptor: Potentiators. DiscoveRx D2 beta-arrestin cells, luminescence, 90 min; 100% = 57 uM dopamine signal. potentiation, % (test concentration not listed). 360,000 tested, 0.23% active. AID 624464, 2012; active = potentiation of 50% or more; inconclusive = 30% to 50%; inactive = 30% or less;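 note: compound concentration not given in the record; tested on top of an EC20 dose of dopamine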
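D2 cells co-treated with compound plus 50 nM dopamine (EC20) for 90 min at 37 deg C to detect potentiation. Beta-arrestin recruitment was read as enzyme-fragment luminescence after 1 h at ambient temperature. Full response was set by 57 uM dopamine.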
The depositor's hits bear a star; nt = no result given; & = joins results of further samples; [ ] = remark or other dose.

SMILES	Six1-Eya2 blk	D2 ag	PINK1 expr mod	TRPML1 inh	TRPML1 agonist	D2 PAM
CCSc1ncc(Cl)c(C(=O)N2CCN(c3ccc(OC)cc3)CC2)n1	nt	nt	0.3%	14.5	1.0	nt
CCN(C(=O)COC(=O)c1cccnc1)c1cccc2ccccc12	10.7	-2.2	0.2%	33.3	-0.7	-12.2
COc1cccc(CN(C)C(=O)CC23CC4CC(CC(C4)C2)C3)c1OC	6.9	-5.2	-0.2%	13.1	0.8	1.0
CC(C)CCOc1cccc(OCC(=O)Nc2ccncc2)c1	-3.7	2.5	19.6%	34.1	3.0	-1.9
COC(=O)c1c(NC(=O)C2=COCCO2)sc(C)c1C	4.5	-1.9	-0.5%	8.2	2.3	-25.1
COC(=O)c1cccnc1-n1c(=O)c2cccnc2n(Cc2cccc(OC)c2)c1=O	7.3	-2.2	0.0%	-11.8	-0.8	-6.2
O=C1c2[nH]nc(-c3ccccc3O)c2C(c2ccccc2F)N1Cc1ccncc1 (configuration not stated)	nt	nt	4.5%	-14.7	-0.9	nt
NC(=O)c1ccc(NC(=O)CC23CC4CC(CC(Br)(C4)C2)C3)cc1	-10.8	-5.3	-0.9%	0.8	0.9	-8.9
COc1cc(Nc2nc3c(S(=O)(=O)c4ccc(C)c(C)c4)nnn3c3ccsc23)cc(OC)c1	nt	nt	2.5%	17.5	0.8	nt
Cn1c(=O)n(C)c2cc(NC(=O)CSc3nnc(-c4ccccc4O)n3-c3ccccc3)ccc21	-20.8	-0.6	17.1%	-8.6	1.1	-9.8
COc1cccc(-c2sc3ccc(OC)cc3c2C#CCCO)c1	-3.7	-2.9	0.0%	12.1	1.8	-16.7
CN(C(=O)c1c[nH]c(=O)cc1C(F)(F)F)c1ccc(Cl)c(Cl)c1	17.6	-0.2	-1.3%	3.5	0.9	-1.1
CCCOC(=O)c1c(-c2ccccc2)nc(CC)c(C(=O)SCC)c1CCC	1.5	3.2	3.2%	-6.4	-0.3	-5.2
COc1ccc(N(CC(=O)Nc2ccc(C)c(F)c2)S(=O)(=O)c2c(C)noc2C)cc1	-3.2	-2.9	1.1%	-5.7	-0.3	0.2
CC1(c2nnc(Cc3ccccc3)o2)CC(c2ccncc2)=NO1 (configuration not stated)	12.0	-1.1	1.7%	14.5	-0.1	-2.0
CCC(=O)N1CCN(c2ccc(NC(=O)COc3ccc(CC)cc3)cc2)CC1	-10.4	-0.3	5.8%	-5.3	-1.1	-1.3
CCN(CC)S(=O)(=O)c1ccc(C(=O)NCc2nnc(SCC(=O)OC)n2C)cc1	4.6	-2.3	0.4%[38.3 µM]	13.7	1.8	-3.7
COc1ccccc1CNC(=O)CCC1N=C2c3ccccc3N=C(SCc3ccc(C)cc3)N2C1=O (configuration not stated)	nt	nt	-0.6%	-14.9	0.1	nt
COc1ccc(C(=O)Nc2ccc(NC(C)=O)cc2)cc1S(=O)(=O)N1CCCCC1C (configuration not stated)	-1.3	-2.5	11.2%	-6.9	-0.3	-3.1
O=C(NC(CO)c1ccccc1)c1ccco1 (configuration not stated)	-2.3	-1.9	1.6%	-16.2	-0.2	0.2
CC(=O)c1c(C)nc2ccc(Br)cc2c1-c1ccccc1	1.2	0.3	1.3%	6.1	1.3	0.6
CCOc1cc(NC(=S)Nc2ccccc2)c(OCC)cc1NC(=O)c1ccccc1	-25.6	-0.2	0.8%	-5.2	-1.1	11.5
Cc1cc(C)n2nc(SCC(=O)N(Cc3ccccc3)C3CCS(=O)(=O)C3)nc2n1 (configuration not stated)	-1.2	1.8	-3.1%	-0.1	0.3	-2.4
O=C(Nc1ccccc1C(=O)Nc1ccc(Br)cn1)c1cccc([N+](=O)[O-])c1	-4.2	-2.0	8.9%	nt	nt	-0.3
CC1Cc2ccccc2N1S(=O)(=O)c1cccc(C(=O)N2Cc3ccccc3CC2C(N)=O)c1 (configuration not stated)	5.4	6.4	-0.9%	-2.6	1.3	-1.8

Profiles from above. Screens in order: Six1-Eya2 blk, D2 ag, PINK1 expr mod, TRPML1 inh, TRPML1 agonist, D2 PAM
O=C(NC(CO)c1ccccc1)c1ccco1 (configuration not stated) is entered as -2.3, -1.9, 1.6%, -16.2, -0.2, 0.2
CC(=O)c1c(C)nc2ccc(Br)cc2c1-c1ccccc1 is entered as 1.2, 0.3, 1.3%, 6.1, 1.3, 0.6

Carrying on:
SMILES	Six1-Eya2 blk	D2 ag	PINK1 expr mod	TRPML1 inh	TRPML1 agonist	D2 PAM
COc1ccc(/C(=N/O)C(C)(C)NO)cc1	9.6	4.1	-1.4%	10.0	0.5	9.7
COc1ccc(CNC(=O)c2cc3c(s2)CN(Cc2ccccc2)C3)cc1	-2.4	-0.8	2.6%	19.9	0.3	-16.2
COCCCn1cc(CN2CC(N3CCCC3)CS2(=O)=O)nn1 (configuration not stated)	17.2	nt	0.3%	nt	-0.2	nt
NS(=O)(=O)c1ccc(CCNC(=O)c2ccc3c(c2)OCO3)cc1	-0.5	-1.6	2.3%	-14.5	-0.4	-6.4
CCOC(=O)/C(O)=C/c1ncc(C(F)(F)F)cc1Cl	-9.3	-0.7	-0.5%	1.7	1.8	-11.8
COc1cccc(/C=C/C(=O)OCC(=O)c2c[nH]c3ccccc23)c1OC	-13.1	1.2	0.9%	-5.6	0.2	-23.6
CCc1ccc(CNCc2c(C(=O)O)n(Cc3ccc(F)cc3Cl)c3cc(OC)ccc23)cc1	nt	nt	1.5%	11.4	0.8	nt
Cc1ccc(C)c(N2CCN(C(c3ccncc3)c3nnnn3Cc3ccccc3)CC2)c1 (configuration not stated)	-1.6	-1.7	0.8%[38.3 µM]	31.2	0.5	-10.7
COc1ccc(N(C)S(=O)(=O)c2cccc(C(=O)Nc3cccc(C(=O)NC4CC4)c3)c2)cc1	8.3	-1.9	0.6%	-1.0	1.0	-3.7
COc1cc2c(=O)c(C(=O)c3ccc(F)cc3)cn(Cc3cccc(F)c3)c2cc1OC	nt	nt	-1.1%	-16.6	-0.1	nt
CCOC(=O)c1c(CC(C)C)csc1NC(C)=O	13.8	-1.4	7.6%	-2.3	1.0	-7.4
O=c1[nH][nH]c(-c2ccccc2)c1C=Nc1ccc(C(F)(F)F)cc1	0.6	0.1	-0.3%	11.8	-0.7	-6.0
CCCCC(=NCCc1c(C)[nH]c2ccccc12)C1=C(O)CC(c2ccccc2)CC1=O (configuration not stated)	-17.0	3.9	1.6%	-1.8	-0.4	0.5
CC1(C)CC(=O)C(CC2=C(N)CC(C)(C)CC2=O)=C(N)C1	-0.6	4.3	-0.1%	-12.4	-0.1	-1.1
O=C(CCCSc1nc2ccccc2[nH]1)NC1CCCCC1	2.1	-3.6	-0.9%	-14.9	4.8	-64.8
COc1ccc(Cl)cc1S(=O)(=O)N1CCCC(C(=O)N2CCCC2)C1 (configuration not stated)	0.0	-0.5	-1.2%	-0.3	0.0	-6.4
N#C/C(=C\c1cn(CCOc2ccccc2)c2ccccc12)C(=O)NCc1cccs1	-1.9	-3.2	6.8%	6.0	-0.3	-15.6
NC(=O)c1cc([N+](=O)[O-])ccc1NCCN1C(=O)c2ccc(C(=O)O)cc2C1=O	-9.4	-2.6	-0.6%	9.6	1.8	-7.2
OC(c1ccc(F)cc1)c1ncc(-c2cccc(C(F)(F)F)c2)[nH]1 (configuration not stated)	-5.9	4.3	8.0%	nt	-1.1	-10.0
COc1cccc(NC(=O)NC2CC(=O)N(c3ccc4c(c3)OCCO4)C2)c1 (configuration not stated)	-3.4	-0.6	-1.2%	10.1	0.0	1.4
CCc1nnc2c(NCc3ccc(F)cc3)nc3ccccc3n12	nt	nt	-0.6%	-6.5	2.6	nt
Cc1ccccc1N1CC(C(=O)Nc2ccc3c(c2)OCO3)CC1=O (configuration not stated)	-7.3	0.7	0.7%	-0.9	0.5	-4.6
Cc1ccccc1C(=O)Nc1sc2c(c1C(=O)N1CCCCC1)CCC(C)C2 (configuration not stated)	nt	nt	2.5%	18.4	-0.1	nt
CNC(=O)c1nn(-c2ccc(Cl)cc2)ccc1=O	5.4	-13.6	-0.3%	4.0	-0.2	-21.4
CCc1nn(CCCC(=O)N2CCN(c3cccc(OC)c3)CC2)c(=O)c2cc3occc3n12	nt	nt	1.2%	5.8	0.4	nt
Later entries:
SMILES	Six1-Eya2 blk	D2 ag	PINK1 expr mod	TRPML1 inh	TRPML1 agonist	D2 PAM
C/C(N)=C(/C#N)C(=O)COC(=O)CNC(=O)c1ccc(Cl)cc1Cl	-1.0	-10.0	2.3%	4.5	-0.3	7.2
CC(=O)c1ccc(NC(=O)CN2CCC(C(=O)c3ccc(F)cc3)CC2)cc1	-26.3	-1.5	-0.4%	-5.1	-1.5	-14.2
COc1ccc(-c2cc(C(F)(F)F)nc(SCC(=O)N3CCCCC3C)n2)cc1OC (configuration not stated)	nt	nt	2.0%	1.6	-0.3	nt
COc1ccc(-c2noc(N3CCC(C(=O)Nc4ccccc4OC)CC3)n2)cc1	-1.5	-4.8	1.7%	12.8	1.1	-5.4
COc1cc(NC(=O)c2ccc(N)nc2)cc(C(=O)Nc2cccc(C(F)(F)F)c2)c1	-3.7&-0.2	0.5&-2.2	-0.5%&5.7%	8.7&-6.1	3.2&1.2	-5.9&-14.3
O=C(Nn1cnnc1)C(c1ccccc1)c1ccccc1	-0.9	-1.7	-1.3%	4.2	-0.8	6.9
CCC1=C(c2ccc(C)cc2)S(=O)(=O)N=C1N1CCC(C(=O)NCc2ccc(C)cc2)CC1	nt	nt	0.7%	17.9	1.9	nt
C=C(C)[C@H]1CC=C(C)C(=O)C1	-0.4	-4.2	6.5%	-0.4	-0.6	-0.3
COc1ccc(C(=O)OC(C)C(=O)Nc2cc(C(F)(F)F)ccc2Cl)c(OC)c1OC (configuration not stated)	26.4	-3.6	16.9%	64.7	2.6	-19.4
CC1(C)CC(=O)c2cc(-c3nc(-c4ccc(Cl)cc4)cs3)c(=O)n(-c3cccc(F)c3)c2C1	nt	nt	-1.3%	-23.5	2.0	nt
Fc1ccccc1CSc1nnc(-c2ccccc2)o1	27.2	-2.9	-0.5%	6.2	1.3	-8.0
CCc1cccc(C)c1NC(=O)CN1C(=O)NC(Cc2ccccc2)C1=O (configuration not stated)	-2.1	-2.9	0.6%	3.1	0.4	-2.0
COc1ccc(S(=O)(=O)N2CCN(c3ccccc3OC)CC2)cc1-c1noc(C)n1	nt	nt	2.8%	46.2	2.1	nt
O=C(CNC(=O)c1ccccc1Cl)OCc1cc(=O)n2ccsc2n1	nt	nt	-0.1%	7.1	0.4	nt
CCC1Oc2ccccc2N(CC(=O)NCCCN2CCC(C)CC2)C1=O (configuration not stated)	4.4	-3.7	-0.3%[38.3 µM]	-2.0	0.1	-9.3
CCn1c(/C=C/Nc2ccccc2)[n+](CC)c2ccc(Cl)cc21	-7.9	-5.9	8.9%	2.1	-1.5	-28.7

High-throughput results from PubChem BioAssay.
